Bioassay records from PubChem.
CBX7 inh: CBX7 chromodomain binding inhibitors, primary screen, biochemical, AlphaScreen; Chromobox protein homolog 7 (Homo sapiens), O95931; AlphaScreen His6-CBX7 / biotin-H3K27me3 peptide binding; hits give low values; normalised signal (fraction of DMSO) (no concentration beside the values); 66,000 compounds, 1.1% hits; in the data active means normalised signal below about 0.5;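 further: 100 nL library stock added to about 20 µL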
Target sequence (O95931 whole entry, looked up): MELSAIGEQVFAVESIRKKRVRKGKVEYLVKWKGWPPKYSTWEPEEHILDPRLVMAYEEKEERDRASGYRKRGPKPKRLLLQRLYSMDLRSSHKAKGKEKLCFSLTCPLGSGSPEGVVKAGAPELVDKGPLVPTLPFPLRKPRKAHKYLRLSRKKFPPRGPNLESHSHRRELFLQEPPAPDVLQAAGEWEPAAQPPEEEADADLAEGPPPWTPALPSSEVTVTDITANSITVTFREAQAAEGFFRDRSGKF
CBX7 inh z-score: further read-out of CBX7 inh, marked with its call; z-score; measured here: z-score of CBX7 signal; some inactives read as strong as hits; reference of the scale not given here;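 same signal on another scale; lower means less binding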
* hit, by the source's call; & = joins results of further samples. These rows are one share of the data; count on the stated rates, not on these rows.

SMILES	CBX7 inh	CBX7 inh z-score
CCOC(=O)c1cnc2cc(Cl)c(OC)cc2c1Nc1ccc(C)c(F)c1	0.92	-0.094
Cc1cc(C)c(Cc2c(C)nc3c(C(=O)NC4CCC(C)CC4)cnn3c2C)c(C)c1 (configuration not stated)	0.96	-0.22
Cc1cccc(C(=O)Nc2sc3c(c2C(=O)N2CCCCC2)CCC(C)C3)c1 (configuration not stated)	0.86	-1.8
Cc1cc(NC(=O)CCS(=O)(=O)c2nc(-c3ccc4c(c3)OCO4)cc(C(F)(F)F)n2)no1	1.1	0.71
O=C(CN1C(=O)COc2ccccc21)NC1CCCCCC1	1	0.37
CC(NC(=O)C1CCCN(S(=O)(=O)c2cnc[nH]2)C1)c1ccccc1 (configuration not stated)	1	0.58
O=C(c1csc2c1CCCC2)N1CCN(c2ccccc2)CC1	0.99	-0.35
COc1ccc(N2CCN(Cc3nc(-c4ccc(Cl)cc4Cl)no3)CC2)cc1	1.1	1.7
CCOC(=O)c1cc(-c2ccc(OC)cc2)n(CCC(=O)Nc2ccc(OCC)cc2)c1C	1	0.017
CCCNC(=O)c1cc(-c2ccccc2)nc2ccccc12	1.1	1.2

Entries of single compounds, quoted from the list. Screens in order: CBX7 inh | CBX7 inh z-score
Results for CCCNC(=O)c1cc(-c2ccccc2)nc2ccccc12 : 1.1 | 1.2
Results for Cc1cc(NC(=O)CCS(=O)(=O)c2nc(-c3ccc4c(c3)OCO4)cc(C(F)(F)F)n2)no1 : 1.1 | 0.71

Later entries:
SMILES	CBX7 inh	CBX7 inh z-score
O=C1CC(N2CCN(Cc3ccc4c(c3)OCO4)CC2)C(=O)N1c1ccc(Cl)cc1 (configuration not stated)	0.98	-0.44
O=C(CCn1nc(-c2ccccc2)ccc1=O)NCc1ccc(F)cc1	1	0.59
CC(C)Oc1ccc(C(=O)N(Cc2cccs2)C2CCS(=O)(=O)C2)cc1 (configuration not stated)	1	0.33
O=C(NCc1ccc2c(c1)OCO2)c1cc(=O)[nH]c2ccccc12	1	0.026
CC(=O)N1CCc2cc(S(=O)(=O)NC(CC(C)C)C(=O)NCc3ccc(C)cc3)ccc21 (configuration not stated)	1	0.64
CCOc1ccc(C(=O)N(Cc2ccc(C(C)C)cc2)C2CCS(=O)(=O)C2)cc1 (configuration not stated)	1.2	1.5
Cc1cc(N2CCN(c3ncccn3)CC2)nc2ccc(NC(=O)COc3ccc(Cl)cc3)cc12	1.1	2.5
CCCCn1c(C(C)NC(=O)c2ccc(Cl)cc2)nc2ccccc21 (configuration not stated)	0.98	-1.1
CCc1cccc(NC2c3ccccc3C(=O)N2c2ccc(C)cn2)c1 (configuration not stated)	1	-0.079
Cc1cc(OCC(=O)N(Cc2ccc(C(C)C)cc2)C2CCS(=O)(=O)C2)cc(C)c1Cl (configuration not stated)	1.1	0.7
CCc1ccc(CNC(=O)c2cc3c(-c4cccc(OC)c4)nn(C)c3s2)cc1	1	1.2
Cc1cc(Nc2cccc(Cl)c2C)n2ncnc2n1	1	1.4
Cc1ccc(-c2nc(NC(=O)CSc3nnc(C)s3)ns2)cc1	1	0.12
COc1ccc(-c2noc(COc3ccc(C)cc3C)n2)cc1OC	1.1	2.7
Cc1cc(NC(=O)CCNS(=O)(=O)c2ccc3c(c2)CCC(=O)N3)no1	1	0.042
CCC(C)NC(=O)c1ccc2c(c1)N(Cc1ccc(F)cc1)CCS2 (configuration not stated)	0.75	-0.34
CCOC(=O)N1CCN(c2c(N3CCN(CC)CC3)c(=O)c2=O)CC1	1.1	2.1
Fc1ccc(Nc2c3c(nc4ccccc24)CCC3)cc1	0.87	-3.9
COc1cc2c(cc1OC)C(C(=O)NCCC(C)C)C1c3ccccc3CCN1C2=O (configuration not stated)	1	-0.15
Cc1cc(C)cc(Nc2cc(C(=O)NCc3cccs3)c3ccccc3n2)c1	1.5	14
COc1ccc(C2(C(=O)Nc3ccc(C)c(C)c3)CCCC2)cc1OC	1	0.65
Cc1ccccc1NC(=O)Cc1c(C(=O)O)[nH]c2ccccc12	1	-0.03
CC1(C)NC(=O)N(CC(O)COc2cccc(OCC(O)CN3C(=O)NC(C)(C)C3=O)c2)C1=O (configuration not stated)	1.1	1.7
Cc1[nH]c2c(Cl)cccc2c1CCNS(=O)(=O)c1ccc(C(C)(C)C)cc1	0.97	-0.31
CN1CCN(c2nnc(-c3ccc(Cl)cc3)c3ccccc23)CC1	1	0.61
CC(=O)N1CCc2cc(Br)cc(S(=O)(=O)NCCCN3CCc4ccccc4C3)c21	1	0.22
COc1ccc(-n2nc3c(c2NC(=O)c2ccc(C)cc2)CSC3)cc1	0.89	-2
COc1ccccc1C1(CCC(=O)O)CCC(=O)NC1=O (configuration not stated)	1	1.2
CCc1ccccc1NC(=O)C1CCN(S(=O)(=O)c2ccc3c(c2)CCC(=O)N3)CC1	1	0.14
COc1ccc(NC(=O)CCc2nc(-c3ccccc3F)no2)c(OC)c1	1	0.35
Cc1nc2c(C(=O)NC(C)c3ccccc3)c[nH]n2c(=O)c1Cc1ccccc1F (configuration not stated)	1	0.15
CCc1ccc(NC(=O)C2CC(c3cc(OC)ccc3OC)=NO2)cc1 (configuration not stated)	1	1.4
COc1ccc(C(=O)CSc2nnc3n(N)cnn23)cc1	1	1.3
COc1ccccc1N1CCN(C(c2ccccc2)c2n[nH]c(=O)c3ccccc23)CC1 (configuration not stated)	0.86	-2
Cc1c(C)n(CC(O)CNCCc2ccccc2)c2ccccc12 (configuration not stated)	0.8	-5.6
COc1cc(NC(=O)Cc2ccc(OC)c(OC)c2)c2ncccc2c1	1&0.99	0.99&-0.14
CCOC(=O)c1cc(-c2ccccc2)n(CCC(=O)Nc2ccc(C)cc2C)c1C	0.96	-0.48
CCC(=O)Nc1nc(C)c(-c2csc(NCc3ccccc3)n2)s1	0.73	-3.9
CCN(CC)CCNC(=O)Cn1c(C)cc2ccccc2c1=O	0.93	-1.4
CCN(CC)C(C(=O)Nc1ccc(C(C)C)cc1)c1ccccc1 (configuration not stated)	1.1	0.78
O=C1CC(c2ccccc2)CC2=C1C(c1ccccn1)Nc1ccccc1N2 (configuration not stated)	0.96	-1.5
CCN1CCN(CCCNC(=O)CC2Oc3ccc(C)cc3NC2=O)CC1 (configuration not stated)	1.1	3.3
CCCCSc1oc(-c2ccccc2)nc1S(=O)(=O)c1ccc(F)cc1	1.1	0.72
CCOc1ccccc1NC(=O)CCCOc1cc(=O)n(C)c2ccccc12	0.88	-2
Cc1nc2c(C(=O)NCc3ccc(F)cc3)cnn2c(C)c1Cc1ccc(F)cc1Cl	0.92	-0.72
CCOC(=O)c1cnc2cc(C(F)(F)F)ccc2c1Nc1cc(C)c(Cl)cc1OC	1	0.84
COc1ccc(-c2nc(-c3ccccc3)c(-c3cccs3)[nH]2)cc1OC	0.51	-3
O=C(NCC1CCCO1)c1ccc2c(c1)N(Cc1ccccc1F)C(=O)c1ccccc1S2=O (configuration not stated)	0.95	-1.4
O=C(CN1C(=O)COc2ccc(S(=O)(=O)N3CCCC3)cc21)NCc1ccccc1	1.2	2.2
COc1ccc(Cn2c(CCC(=O)Nc3ccc(Br)cc3)nc3cccnc32)cc1	1.1	2.1

Following part:
SMILES	CBX7 inh	CBX7 inh z-score
COCCCNC(=O)c1cc(Sc2nnc(C)s2)nc2ccccc12	1.1	1.1
Cc1csc2ncc(C(=O)Nc3ccc(F)c(C(F)(F)F)c3)c(=O)n12	1	1.2
O=C(C1CC1)N1CCc2cc(S(=O)(=O)NCCN3CCCC3)ccc21	1	0.17
COc1ccc(-n2c(/C=C/c3ccc(N(C)C)cc3)nc3ccccc3c2=O)cc1Cl	0.91	-0.84
CC(C(=O)NCC1CCCO1)C1Sc2ccccc2N(Cc2ccc(F)cc2Cl)C1=O (configuration not stated)	1	-0.12
COc1cc(OC)cc(C(=O)Nc2ccccc2-c2nc3ccccc3[nH]2)c1	1	0.18
Cc1ccc(Nc2c(-c3ccccc3O)nc3ncccn23)c(C)c1	0.94	-1.2
COc1ccccc1CNC(=O)C1CCCN(Cc2nc(-c3ccccc3C)oc2C)C1 (configuration not stated)	1	1
COc1ccc(OC)c(NC(=O)C2CCCN(S(=O)(=O)c3c(C)noc3C)C2)c1 (configuration not stated)	1	0.048
O=C(CN1CC(c2ccccc2)CC1=O)NCCc1ccc(Cl)cc1 (configuration not stated)	1	0.37
COc1ccc2nc(SCC(=O)Nc3cccc(NC(C)=O)c3)[nH]c2c1	0.95	-1.3
CCN(CC)CCCNC(=O)c1cnc(Nc2ccccc2OC)c2ccccc12	1	0.82
Cc1cccc(C)c1NC(=O)CN1C(=O)COc2ccc(S(=O)(=O)N3CCOCC3)cc21	1	1.8
CC(C)c1ccc(NC(=O)Cc2c(C(=O)O)[nH]c3ccc(Cl)cc23)cc1	0.95	-1.3
Cc1cccc(NC(=O)C(c2ccc(Cl)cc2)N2CCOCC2)c1 (configuration not stated)	1	1.6
CCC(CO)NCC(O)COc1cccc(OC)c1 (configuration not stated)	1	0.034
O=C(NCc1ccc(F)cc1)C1(NS(=O)(=O)c2cccc3cccnc23)CCCCC1	1	0.69
COc1ccccc1N1CCN(C(=O)c2cnc(N3CCN(c4ccccn4)CC3)c3ccccc23)CC1	0.9	-2.7
Cc1cc(Br)c2c(c1)C(O)(CC(=O)c1ccccn1)C(=O)N2 (configuration not stated)	1.1	1.7
Cc1ccc(OCC(=O)Nc2ccc(S(=O)(=O)Nc3nccs3)cc2)c(Br)c1	1	0.098
CC(C(=O)c1ccccc1)C1(O)C(=O)N(Cc2ccc(Cl)cc2)c2ccccc21 (configuration not stated)	0.91	-1
N#Cc1nc(COc2ccc(Br)cc2)oc1NCc1cccnc1	1	-0.2
Clc1cccc(-c2nc(-c3cccnc3)no2)c1	1.1	1.4
COCCNC(=O)CS(=O)(=O)Cc1nc(-c2cccc(OC)c2)oc1C	1.1	0.27
COc1ccc(-n2nc3nc[nH]c(=O)c3n2)cc1	1.1	1.9
Cc1nc(C)c(-c2csc(Nc3ccc(C(=O)O)cc3)n2)s1	0.88	-2.3
CC1CCN(C(C(=O)Nc2ccc3c(c2)OCO3)c2ccccc2)CC1 (configuration not stated)	0.9	-0.63
CCCn1c(COc2ccc(OC)cc2)nc2ccccc21	1	0.37
CCOCc1cnc(C)nc1NCC(=O)c1c(C)[nH]c2cc(C)ccc12	1.1	1.9
O=C(CC(C(=O)N1CCc2ccccc21)n1ccnc1)NCC1COc2ccccc2O1 (configuration not stated)	1.1	2.4
Cc1cc2cc(CCNC(=O)c3ccc(Cl)cc3Cl)c(=O)[nH]c2cc1C	1	1.1
COc1ccc(C2CC(=O)N(CC(=O)Nc3cc(OC)ccc3OC)c3ccccc3S2)cc1 (configuration not stated)	0.69	-5.2
COc1ccc(-c2cc(C(=O)NCCCN3CCOCC3)c3cc(C(C)C)ccc3n2)cc1	1.1	0.074
CC1CC(C)CN(S(=O)(=O)c2ccc3c(c2)N(CC(=O)NCCCc2ccccc2)C(=O)CO3)C1 (configuration not stated)	1	0.75
CCOc1ccccc1NC(=O)C1(S(=O)(=O)c2ccc(Cl)cc2)CC1	0.98	-0.39
O=C(NC1CCCCC1)c1cccc2c1C(=O)N(Cc1cccnc1)C2	0.7	-2.5
O=C1CC(N2CCC(O)CC2)C(=O)N1c1ccc(Cl)cc1 (configuration not stated)	1.1	2.7
CCOc1ccc(-n2c(C)nc3c(cnn3-c3ccc(F)cc3)c2=O)cc1	0.84	-2
O=C(CN1C(=O)COc2ccc(S(=O)(=O)N3CCOCC3)cc21)NCCC1=CCCCC1	1	1.6
Cc1ccc(NC(=O)Cn2c(SCc3ccccc3F)nc3ccncc32)c(Cl)c1	1	-0.028
Cc1ccc2c(c1)NC(c1ccccc1)C1=C(CC(C)(C)CC1=O)N2 (configuration not stated)	0.82	-0.72
O=C(Cn1c(-c2cscn2)nc2ccccc21)Nc1ccc(Cl)cc1	1	0.25
CCOC(=O)c1c(NC(=O)c2ccc(Cl)cc2)sc2c1CCC2	1.2	2
CCN(CC)S(=O)(=O)c1ccc2c(c1)N(CC(=O)Nc1cc(Cl)ccc1OC)C(=O)CS2	0.98	-0.64
Cc1cccc(-c2nc(Nc3ccc(Cl)c(Cl)c3)c3ccccc3n2)c1	1.4	7.5

Entries from the list above containing an NH in an aromatic ring:
SMILES	CBX7 inh	CBX7 inh z-score
CC(NC(=O)C1CCCN(S(=O)(=O)c2cnc[nH]2)C1)c1ccccc1 (configuration not stated)	1	0.58
O=C(NCc1ccc2c(c1)OCO2)c1cc(=O)[nH]c2ccccc12	1	0.026
Cc1ccccc1NC(=O)Cc1c(C(=O)O)[nH]c2ccccc12	1	-0.03
Cc1[nH]c2c(Cl)cccc2c1CCNS(=O)(=O)c1ccc(C(C)(C)C)cc1	0.97	-0.31
Cc1nc2c(C(=O)NC(C)c3ccccc3)c[nH]n2c(=O)c1Cc1ccccc1F (configuration not stated)	1	0.15
COc1ccccc1N1CCN(C(c2ccccc2)c2n[nH]c(=O)c3ccccc23)CC1 (configuration not stated)	0.86	-2
COc1ccc(-c2nc(-c3ccccc3)c(-c3cccs3)[nH]2)cc1OC	0.51	-3
COc1cc(OC)cc(C(=O)Nc2ccccc2-c2nc3ccccc3[nH]2)c1	1	0.18
COc1ccc2nc(SCC(=O)Nc3cccc(NC(C)=O)c3)[nH]c2c1	0.95	-1.3
CC(C)c1ccc(NC(=O)Cc2c(C(=O)O)[nH]c3ccc(Cl)cc23)cc1	0.95	-1.3
COc1ccc(-n2nc3nc[nH]c(=O)c3n2)cc1	1.1	1.9
CCOCc1cnc(C)nc1NCC(=O)c1c(C)[nH]c2cc(C)ccc12	1.1	1.9
Cc1cc2cc(CCNC(=O)c3ccc(Cl)cc3Cl)c(=O)[nH]c2cc1C	1	1.1
